T cruzi repl: inhibitors of intracellular T. cruzi growth, primary screen, luminescence, NIH3T3 host cells; 300,000 compounds, 1.4% hits; AID 1885, 2009; T. cruzi beta-gal in NIH3T3, 90 h; inhibition, % (concentration not given with the values);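 active means mean inhibition across valid replicates above about 55%, limit read from the data; inconclusive means mean below that limit but half or more replicates reach it; inactive means mean below it, under half of replicates reach it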;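 further: signal also drops with host cell toxicity which is not excluded here; 0% = plate median of DMSO wells and 100% = zero luminescence signal; higher percent means less beta-gal luminescence so fewer parasites; stock transfer was 50 nL into about 50 µL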
RanGTP-Impb inh: inhibitors of RanGTP-importin-beta interaction, primary screen, biochemical, FRET, CFP-Ran, YFP-importin-beta, homogeneous. Ran GTPase (GTP-bound) - importin-beta complex. cell-free CFP-Ran/YFP-importin-beta FRET ratio. inhibition, % (no concentration beside the values). 300,000 compounds, 1.1% hits. AID 2216, 2009;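 active means most replicates above 15%; inconclusive means exactly half above 15%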;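 further: 0% = DMSO wells and 100% = Ran loaded with GDP instead of GTP; wells of about 40 µL received 100 nL stock; the first replicate is given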
MLL AF4-AF9 inh: inhibitors of AF4 peptide binding to AF9, primary screen, biochemical, AlphaScreen, biotin-AF4 peptide, FLAG-AF9, single point; Protein AF-9 (Homo sapiens), P42568; inhibition, % at 10 µM; 350,000 compounds, 0.47% hits;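 active means every replicate reaching a set inhibition limit, whatever the replicate mean, cut at about 25% in these data; inconclusive means mean inhibition reaches that limit but some replicates miss it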;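 further: 0% = plate neutral control median and 100% = total signal loss; the record names both 10 and 1 µM as test concentration; the first replicate is given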
Target sequence (P42568 whole entry, looked up): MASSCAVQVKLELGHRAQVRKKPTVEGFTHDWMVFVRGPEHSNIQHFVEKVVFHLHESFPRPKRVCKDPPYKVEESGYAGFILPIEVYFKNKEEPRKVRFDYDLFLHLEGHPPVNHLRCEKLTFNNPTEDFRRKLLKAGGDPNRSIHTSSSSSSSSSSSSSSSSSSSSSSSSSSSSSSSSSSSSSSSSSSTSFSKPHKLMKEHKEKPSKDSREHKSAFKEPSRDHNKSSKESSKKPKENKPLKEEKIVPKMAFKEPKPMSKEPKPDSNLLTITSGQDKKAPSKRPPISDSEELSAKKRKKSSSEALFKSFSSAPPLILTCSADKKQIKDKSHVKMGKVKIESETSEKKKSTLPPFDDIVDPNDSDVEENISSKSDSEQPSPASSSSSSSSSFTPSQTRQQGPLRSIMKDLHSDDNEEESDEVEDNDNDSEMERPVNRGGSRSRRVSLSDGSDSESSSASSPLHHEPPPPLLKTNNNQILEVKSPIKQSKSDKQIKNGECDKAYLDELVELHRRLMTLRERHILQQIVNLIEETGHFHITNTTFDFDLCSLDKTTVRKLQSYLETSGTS
Calb FLC: C. albicans growth inhibition with fluconazole, primary screen, CaCi-2 strain, Alamar Blue fluorescence; C. albicans CaCi-2 (fluconazole-resistant clinical isolate) + fluconazole, 48 h; growth inhibition, % (no concentration beside the values); 300,000 compounds, 0.57% hits; AID 1979, 2009;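 active means most replicates above 75%; inconclusive means exactly half above 75%; inactive means most below 75%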;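 further: all wells also contain fluconazole at 8 µg/ml as a sub-toxic cotreatment; 0% = median of DMSO wells and 100% = median of geldanamycin control wells; wells of about 8 µL received 7.5 nL stock; the first replicate is given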
Bfl-1 A1 inh: caspase 3/7 activation in MEF A1-2A-BIM cells, primary screen, A1 inhibitor project, cell-based, luminescence, HTS. Caspase-Glo 3/7 luminescence, 3 h; percent of clofoctol response, vehicle zero. caspase activation, % (concentration not given with the values). 330,000 compounds, 0.066% hits;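 active means over half of replicate activation scores above 10%, or exactly half above 10 with the replicate mean above 10; inconclusive means replicate mean below 10 yet half the replicates above 10; inactive means over half of replicates below 10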;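 further: wells of about 30 µL received 50 nL stock; many hits fall short of the cut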
rRNA inh HTS: reduced GFP signal of wild-type E. coli, primary screen, bacterial rRNA inhibitor project, GFP/RFP fluorescence, OD600, single point; GFP signal change (wild-type ribosome), % (concentration not given with the values); AID 720706, 2013; 350,000 compounds, 1.6% hits; E. coli WT GFP vs humanized-ribosome RFP mutants, 24 h; active compounds read low; DMSO median 0, no signal -100;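 active means significant combined selectivity score with lowered wild-type GFP, culture density cut under 30%, mutant RFP and density less affected; inactive means any of these conditions unmet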; further: one replicate is shown; some compounds called inactive have numbers as strong as hits
Beta apoptosis: inhibitors of cytokine-induced beta cell apoptosis, primary screen, luminescence; INS-1E cytokine-induced death, ATP luminescence, 48 h; percent of positive-control rescue, neutral wells zero; protection from apoptosis, % (test concentration not listed); 300,000 compounds, 0.8% hits; AID 435005, 2010;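 active means all replicates at 75% or more, or half of them and the mean; inconclusive means half reach 75% but not the mean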;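 further: 0% = cytokine-treated negative control wells and 100% = positive control rescue; higher means more ATP so stronger rescue from cytokine killing; wells of about 40 µL received 100 nL stock; the first replicate is given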
Vif TR-FRET: inhibitors of Vif binding to APOBEC3G peptide, primary screen, biochemical, TR-FRET, GST-Vif 1-94, biotin-A3G peptide, dose response retest (AID 1117319) | 260,000 compounds, 0.57% hits | TR-FRET GST-Vif / biotin-A3G peptide binding; higher % means a stronger effect; test concentration not given here; strong numbers were not always called active | inhibition, %; hits with a dose series show IC50 in µM | Virion infectivity factor (Human immunodeficiency virus type 1 group M subtype B (isolate …;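 active means above the screen mean plus three standard deviations and confirmed in dose response; inconclusive means results disagree or hit not tested in dose response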;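 further: Vif residues 1-94 fused to GST binding biotinylated APOBEC3G peptide 110-148; 0% = full assay without inhibitor and 100% = GST in place of GST-Vif; retest series ran down from 100 µM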
rRNA inh HTS OD600: further read-out of rRNA inh HTS, marked with its call; OD600 change, %; measured here: OD600 growth;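 optical density of the mix in the first replicate; 0 = DMSO median and -100 = no signal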
rRNA inh HTS RFP: further read-out of rRNA inh HTS, marked with its call; RFP signal change, %; measured here: RFP humanized mutant strains;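 first replicate; 0 = DMSO median and -100 = no signal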
An asterisk follows results filed as active; ? = inconclusive; . = no result given. A portion of the library; rates above refer to the full screens.

SMILES	T cruzi repl	RanGTP-Impb inh	MLL AF4-AF9 inh	Calb FLC	Bfl-1 A1 inh	rRNA inh HTS	rRNA inh HTS OD600	rRNA inh HTS RFP	Beta apoptosis	Vif TR-FRET
COc1ccc(CN(C(=O)c2ccco2)c2ccccc2)cc1	17	-4.8	.	-1	0.7	.	.	.	-6	.
COc1cc(/C=N/n2c(-c3cc(C)[nH]n3)n[nH]c2=S)cc(OC)c1OC	-12	-0.3	-2.4	-4	-0.5	14	1	0.4	1	1%
O=C(COc1ccc([N+](=O)[O-])cc1)Nc1ccc(NC(=O)c2ccccc2)cc1	-12	-1.7	-0.9	1	0.0	8	6	2.0	-4	.
CCOC(=O)c1ccc(NC(=S)N(CCCN2CCCC2)Cc2ccco2)cc1	-9	-2.1	6.3	3	0.5	-8	-19	10	-4	-7%
CC1(C)CC(=O)C2=C(C1)Nc1ccccc1[S@]2=O	-20	2.7	0.8	-21	-0.2	0	1	0.1	1	5%
COc1ccc(N2C(=O)CSC23CCC(C(C)(C)C)CC3)cc1 (centres undefined)	17	0.5	.	-23	1.0	.	.	.	-10	-4%
CCc1cc(SC#N)ccc1N	-12	-1.5	-1.2	21	0.9	.	.	.	-1	-5%
O=C1Nc2cc(C(=O)N3CCN(Cc4ccccc4)CC3)ccc2SC1N1CCOCC1 (centres undefined)	-3	3.9	.	22	0.2	.	.	.	-7	4%
NC(=O)COC(=O)[C@H](Cc1c[nH]c2ccccc12)NC(=O)c1ccc(F)cc1	-10	3.2	-16	2	0.4	7	4	0.6	-6	-1%
COc1ccc2oc(=Nc3cccc(F)c3)c(C(N)=O)cc2c1	-21	4.7	5.4	40	-0.6	2	4	-0.8	3	.
CCNCCC(=O)N1c2ccccc2Sc2ccc(C(F)(F)F)cc21	16	8.0	5.0	-15	0.2	-2	-9	-0.6	2	.
CC(c1nc2ccccc2c(=O)[nH]1)N(C)c1ccc2ccccc2c1 (centres undefined)	12	96*	.	-1	-0.9	.	.	.	1	-6%
CN(Cc1ccccc1)C(=O)c1cccc(N2C(=O)C3CC=CCC3C2=O)c1 (centres undefined)	2	0.4	0.2	-5	0.2	5	0	-0.4	-1	-7%
O=C(O)C1CCN(S(=O)(=O)c2ccc(N3CCCC3C(=O)O)c([N+](=O)[O-])c2)CC1 (centres undefined)	-6	-1.9	-0.8	-6	0.2	16	8	1.0	-4	.
NC(=O)C[C@@H]1N[C@]2(C(=O)Nc3ccccc32)[C@@H]2C(=O)N(C3CCCCC3)C(=O)[C@H]12	3	-0.9	.	?	0.1	.	.	.	-8	7%
O=C(CSc1nn(-c2ccccc2)c(=S)s1)Nn1cnnc1	10	-1.0	.	.	0.3	.	.	.	-5	-4%
CC(NC(=O)C(=O)NCCCn1ccnc1)c1ccccc1 (centres undefined)	-12	-6.6	-3.5	-8	0.9	12	14	-2.2	4	4%
CCOc1cc(/C=N/NC(=O)c2cccnc2)ccc1OCc1ccc(C(=O)OC)o1	0	0.8	1.6	12	1.1	5	-2	0.4	4	-12%
N#CC1=C2SCC(O)(c3ccccc3)N2C(=O)CC1c1ccccc1 (centres undefined)	-2	-1.5	.	10	-0.6	.	.	.	15	3%
COc1ccc(CN(C)S(=O)(=O)c2nnc(NC(=O)c3ccc(C)cc3)s2)cc1OC	5	3.1	-12	15	0.6	0	8	-1.7	2	.
Nc1nnc(SCC(=O)OCc2ccc(F)cc2)s1	-25	-5.3	.	-3	1.2	.	.	.	1	0%
Cc1c(OCC(=O)NCC(O)c2ccccc2)ccc2c(-c3ccccc3)cc(=O)oc12 (centres undefined)	37	3.1	-2.6	81*	-0.7	.	.	.	3	.
COc1ccccc1N1CCN(/N=C/c2ccc(O)c(O)c2)CC1	-53	-1.7	17	-14	-0.1	13	12	-1.1	-17	.
O=C(N/C(=C/c1ccc(Br)cc1)C(=O)N1CCCC1)c1ccccc1F	2	3.7	2.7	-12	0.8	.	.	.	-10	16%
Cc1nnc(N)s1	-1	?	.	0	-0.7	-14	-8	-0.5	-4	0%

Sorted by heavy-atom count (ascending): part of the list above
SMILES	T cruzi repl	RanGTP-Impb inh	MLL AF4-AF9 inh	Calb FLC	Bfl-1 A1 inh	rRNA inh HTS	rRNA inh HTS OD600	rRNA inh HTS RFP	Beta apoptosis	Vif TR-FRET
COc1ccc(CN(C(=O)c2ccco2)c2ccccc2)cc1	17	-4.8	.	-1	0.7	.	.	.	-6	.
N#CC1=C2SCC(O)(c3ccccc3)N2C(=O)CC1c1ccccc1 (centres undefined)	-2	-1.5	.	10	-0.6	.	.	.	15	3%
CCOC(=O)c1ccc(NC(=S)N(CCCN2CCCC2)Cc2ccco2)cc1	-9	-2.1	6.3	3	0.5	-8	-19	10	-4	-7%

The main list resumes; the five compounds before the break are reprinted first.
SMILES	T cruzi repl	RanGTP-Impb inh	MLL AF4-AF9 inh	Calb FLC	Bfl-1 A1 inh	rRNA inh HTS	rRNA inh HTS OD600	rRNA inh HTS RFP	Beta apoptosis	Vif TR-FRET
Nc1nnc(SCC(=O)OCc2ccc(F)cc2)s1	-25	-5.3	.	-3	1.2	.	.	.	1	0%
Cc1c(OCC(=O)NCC(O)c2ccccc2)ccc2c(-c3ccccc3)cc(=O)oc12 (centres undefined)	37	3.1	-2.6	81*	-0.7	.	.	.	3	.
COc1ccccc1N1CCN(/N=C/c2ccc(O)c(O)c2)CC1	-53	-1.7	17	-14	-0.1	13	12	-1.1	-17	.
O=C(N/C(=C/c1ccc(Br)cc1)C(=O)N1CCCC1)c1ccccc1F	2	3.7	2.7	-12	0.8	.	.	.	-10	16%
Cc1nnc(N)s1	-1	?	.	0	-0.7	-14	-8	-0.5	-4	0%
O=C(CCCn1c(=O)[nH]c2ccccc2c1=O)N1CCN(c2ccccn2)CC1	2	0.6	-9.9	9	1.6	5	5	0.7	.	4%
Cc1ccc2c(c1)N(C(=O)CCC(=O)NCC(C)c1ccccc1)CC(C)O2 (centres undefined)	14	-0.2	-3.9	-7	0.3	3	0	3.0	1	.
Cc1ccnc(N/C=C/C(=O)c2ccc(Br)cc2)c1	4	8.5	-0.2	-30	-14	11	15	2.8	-2	7%
O=C(O)C1=NOC(CNc2ncc(C(F)(F)F)cc2Cl)C1 (centres undefined)	-2	4.1	0.3	1	0.6	14	15	-4.0	-15	2%
O=C(N/C(=C/c1cccc([N+](=O)[O-])c1)C(=O)N1CCCC1)c1ccccc1	-7	-0.6	-5.1	-9	0.9	2	7	-1.0	1	-5%
CCc1nc2ccccc2c(C(=O)Oc2ccc(C(=O)OC)cc2)c1C	-7	4.5	-6.3	-13	-0.3	1	14	0.3	-1	.
COc1cc(C(=O)Oc2c(OC)cc(C(=S)N3CCOCC3)cc2OC)cc(OC)c1OC	7	0.2	5.1	-1	0.7	-2	8	-2.2	-12	.
CN(C(=O)COC(=O)c1cccc(S(=O)(=O)N(C)c2ccccc2)c1)C1CCCCC1	.	.	-1.1	.	-0.4	-6	-22	-0.9	1	-5%
N#CC1(N2CCN(C(=O)c3ccccc3)CC2)CCCCC1	2	-2.6	-0.9	-2	0.3	7	4	-0.7	3	.
Cn1c(=O)c2c(nc(N/N=C/c3ccncc3)n2Cc2ccccc2)n(C)c1=O	-3	-0.7	11	5	0.5	-29*	-8.7*	-1.1*	5	.
O=C(OCC1OC(Oc2ccc(O)cc2)C(O)C(O)C1O)c1ccccc1 (centres undefined)	0	-4.2	-1.8	-2	1.6	.	.	.	0	.
Cc1ccc(C(=O)N2CCN(S(=O)(=O)c3sc(C(=O)O)c(C)c3C(=O)O)CC2)s1	.	.	1.2	.	0.1	8	13	1.0	1	.
COc1ccc(N(C)C(=O)c2cc3c(s2)-c2ccc(Cl)cc2S(=O)(=O)C3)c(OC)c1	7	8.5	-0.9	21	-0.3	4	13	-1.4	18	.
Cc1nc(C)c(C)nc1C	-5	-1.4	.	.	0.2	.	.	.	56	-7%
CSCCC(NC(=O)c1ccccc1Br)C(=O)NC(C)CCc1ccccc1 (centres undefined)	11	-0.3	-4.2	-2	0.4	0	1	-0.6	-4	.
CN(C)c1ncc(S(=O)(=O)c2ccccc2)c(N)n1	-6	0.2	-2.6	-14	?	14	6	-1.4	-2	0%
COc1ccc(NS(=O)(=O)c2ccc(NC(=O)c3ccccc3Br)cc2)nn1	10	0.3	-1.4	-2	0.1	-26*	-9.6*	0.4*	1	3%
O=C(CC1S/C(=N/N=C2CCCCCC2)NC1=O)Nc1ccccc1C(F)(F)F (centres undefined)	-4	0.5	-0.6	-4	0.0	0	-2	-2.1	-1	.
CCCc1nn(C)c(C(=O)Nc2ccc(CC)cc2)c1Cl	-4	5.4	.	5	0.3	.	.	.	-8	-2%
Cc1cc(C)n(-c2cc(Cl)cc(Cl)c2)c(=O)c1C#N	-9	-1.7	.	-2	0.7	.	.	.	-1	3%
S=c1[nH]nc(COc2ccccc2)n1/N=C/c1ccccc1Br	6	1.3	-0.2	8	-0.2	-7	0	-8.4	6	-1%
Cc1nc(-c2ccc(C(=O)Nc3ccc(F)cc3)cc2)cs1	-27	.	-3.5	.	-6.1	10	18	6.9	18	.
CCCCN(CC)CCNC(=S)Nc1ccc2nc(N3CCN(C)CC3)cc(C)c2c1	64*	?	9.7	-3	-0.6	11	2	-0.5	0	-11%
NC(=Nc1ccccc1)NC(=O)c1nc(Cl)c(N)nc1N	32	?	2.1	-9	-2.4	5	0	-1.1	.	.
CCc1cc(=O)oc2c(CNCc3ccccc3F)c(O)c(Cl)cc12	7	36*	-15	-2	-0.6	2	13	-3.9	-7	-7%
Cc1ccc(CNc2ncc(-c3ccccc3)n2C)o1	-14	-1.1	3.3	-8	-0.7	22	19	3.0	-6	10%
CC(=O)c1c(C)[nH]c(C(=O)CN2C(=O)NC(C)(c3ccc4c(c3)OCO4)C2=O)c1C (centres undefined)	6	3.7	1.2	-3	0.7	-2	-12	-0.6	.	-11%
COc1ccc(-c2ccc(CCC(=O)O)n2-c2ccc(O)cc2)cc1	-11	-4.5	-16	8	0.4	0	-4	4.3	.	.
CNCc1ccccc1Sc1ccc(OC)cc1	9	-3.2	.	0	0.4	.	.	.	-6	4%
Cc1ccc(NCc2nc3ccccc3n2CCOc2ccccc2)cc1	44	5.9	1.7	-3	0.9	7	8	-2.7	-3	.

Screening data from PubChem.
